MLL AF4-AF9 inh: inhibitors of AF4 peptide binding to AF9, primary screen, biochemical, AlphaScreen, biotin-AF4 peptide, FLAG-AF9, single point | hit rate 0.47% among 350,000 | Protein AF-9 (Homo sapiens), P42568 | inhibition, % at 10 µM;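 active = every replicate reaching a set inhibition limit, whatever the replicate mean, cut at about 25% in these data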;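 note: 0% = plate neutral control median and 100% = total signal loss; the record names both 10 and 1 µM as test concentration; the first replicate is given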
Target sequence (P42568 whole entry, looked up): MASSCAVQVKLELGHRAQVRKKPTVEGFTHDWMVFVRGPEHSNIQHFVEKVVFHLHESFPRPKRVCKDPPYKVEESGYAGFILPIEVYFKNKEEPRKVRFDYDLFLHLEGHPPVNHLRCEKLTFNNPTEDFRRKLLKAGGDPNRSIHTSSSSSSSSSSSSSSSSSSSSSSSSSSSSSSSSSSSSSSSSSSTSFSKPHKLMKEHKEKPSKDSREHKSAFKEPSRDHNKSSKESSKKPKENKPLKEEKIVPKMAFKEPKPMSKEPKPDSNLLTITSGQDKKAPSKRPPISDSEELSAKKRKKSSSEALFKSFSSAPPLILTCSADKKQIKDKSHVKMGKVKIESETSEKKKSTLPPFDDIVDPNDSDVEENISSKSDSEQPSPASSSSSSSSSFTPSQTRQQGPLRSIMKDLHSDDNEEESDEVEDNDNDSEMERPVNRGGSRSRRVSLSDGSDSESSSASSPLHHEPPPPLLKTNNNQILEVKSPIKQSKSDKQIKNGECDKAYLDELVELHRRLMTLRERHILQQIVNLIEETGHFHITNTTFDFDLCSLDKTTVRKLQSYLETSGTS
Ecoli rRNA inh: reduced GFP signal of wild-type E. coli, primary screen, bacterial rRNA inhibitor project, GFP/RFP fluorescence, OD600, single point; GFP signal change (wild-type ribosome), % (test concentration not listed); hit rate 1.6% among 350,000; E. coli WT GFP vs humanized-ribosome RFP mutants, 24 h; active compounds read low; DMSO median 0, no signal -100; AID 720706, 2013;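 active = significant combined selectivity score with lowered wild-type GFP, culture density cut under 30%, mutant RFP and density less affected; inactive = any of these conditions unmet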; note: one replicate is shown; some compounds called inactive have numbers as strong as hits
Ecoli rRNA inh OD600: also measured in Ecoli rRNA inh; calls as there; OD600 change, %; measured here: OD600 growth;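 optical density of the mix in the first replicate; 0 = DMSO median and -100 = no signal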
Ecoli rRNA inh RFP: also measured in Ecoli rRNA inh; calls as there; RFP signal change, %; measured here: RFP humanized mutant strains;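 first replicate; 0 = DMSO median and -100 = no signal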
Starred values were filed as active, the others as inactive; & = joins results of further samples. Some of the compounds tested, so the mix of outcomes need not match the whole.

SMILES	MLL AF4-AF9 inh	Ecoli rRNA inh	Ecoli rRNA inh OD600	Ecoli rRNA inh RFP
CCC(=O)Nc1ccc2c(c1)C(=O)N(C)[C@H]1CC[C@H](CC(=O)Nc3ccc(C(C)C)cc3)O[C@@H]1CO2	-1.7	-3	5	-1.5
COCC#Cc1cnc2c(c1)C(=O)N([C@@H](C)CO)C[C@@H](C)[C@@H](CN(C)C(=O)Nc1cc(F)ccc1F)O2	-2.1	10	10	-1.3
COc1ccc(-c2ccc([C@H]3[C@H](CO)N4C(=O)CN(Cc5ccc(C)cc5)C[C@@H]34)cc2)cc1	8.8	3	3	-2.5
O=S(=O)(c1ccccc1F)N1[C@@H]2CNC[C@H]1C2c1ccc(-c2cccc(F)c2)cc1 (stereo partly specified)	-3.8&-1.4	-61&-16	-78&-56	-14&9.0
N#Cc1cccc(-c2ccc3c(c2)[C@H]2[C@H](CCN2Cc2ccncc2)[C@@H](CO)N3)c1	-1.0	8	16	0.8
O=C(Nc1cccc(F)c1)N1CCCCN2[C@H](C1)[C@H](c1ccc(-c3ccncc3)cc1)[C@@H]2CO	-2.9	0	14	0.2
CO[C@@H]1CN(C)C(=O)c2cc(NC(C)=O)ccc2OC[C@@H](C)N(Cc2cccc(F)c2)C[C@H]1C	3.4	-4	-7	1.8
O=C(Nc1ccccc1)N[C@@H]1CC[C@H](CCn2cc(-c3ccccc3F)nn2)O[C@H]1CO	2.2	0	1	0.2
C[C@@H]1CN([C@@H](C)CO)C(=O)c2cc(NC(=O)c3ccncc3)ccc2O[C@@H](C)CCCCO[C@H]1CN(C)C(=O)c1ccccc1	-2.5	-1	0	2.9
COc1cccc(C#Cc2ccc3c(c2)[C@H]2[C@H](CCN2S(=O)(=O)c2cccc(OC)c2)[C@H](CO)N3)c1	-1.3	6	21	1.8
CN(C)C(=O)c1ccc(-c2ccc(C3[C@@H]4CN(Cc5nccs5)C[C@H]3N4)cc2)cc1 (stereo partly specified)	2.6&-1.5	-1&-1	16&17	-1.4&-2.8
O=C(C1CCCCC1)N1CC2(C1)[C@@H](c1ccccc1)[C@H](CO)N2Cc1nccs1	-1.1	-1	9	-2.5
COc1ccc(CN(C)C[C@H]2OCCCC[C@@H](C)Oc3ccc(NC(=O)c4ccccc4)cc3C(=O)N([C@H](C)CO)C[C@H]2C)cc1	11	-1	-6	2.5
CCCNC(=O)N1CC2(CN(C(=O)CN(C)C)C2)c2c(n(C)c3cc(OC)ccc23)[C@@H]1CO	-7.8	-1	13	-5.8
Cc1cccc(-c2ccc([C@H]3[C@H]4CN(C(=O)c5cccnc5)CC(=O)N4[C@H]3CO)cc2)c1	36*	1	3	1.5
CCNC(=O)C[C@@H]1CC[C@@H]2[C@H](COC[C@H](O)CN2C(=O)C2CCCC2)O1	-2.9	5	12	-1.5
C[C@H]1CN([C@@H](C)CO)C(=O)c2c(c3ccccc3n2C)-c2ccccc2CO[C@@H]1CN(C)C(=O)Cc1ccccc1	3.7	-11	-15	14
Cc1ccc(S(=O)(=O)Nc2ccc3c(c2)C(=O)N([C@H](C)CO)C[C@@H](C)[C@@H](CN(C)C(=O)CCC(F)(F)F)OCCCC[C@H](C)O3)cc1	-6.2	4	-1	-1.1
C/C=C/c1ccc([C@H]2[C@@H](CO)N[C@@H]2CNC(=O)C2CCCC2)cc1	0.7	1	-1	0.3
Cc1ccc(S(=O)(=O)Nc2ccc3c(c2)C(=O)N([C@@H](C)CO)C[C@@H](C)[C@H](CN(C)C(=O)CCC(F)(F)F)OCCCC[C@H](C)O3)cc1	-2.4	2	-1	0.6
CN(C)CCCNC(=O)C[C@@H]1CC[C@H]2[C@@H](COC[C@H](O)CN2CC2CCCCC2)O1	-0.4	-1	7	-1.7
Cc1ccc(CN2CC(=O)N3[C@H](CO)[C@@H](c4ccc(-c5ccccc5F)cc4)[C@@H]3C2)cc1	1.1	-7	-18	3.5
O=C(Cc1ccccc1)N1CC(=O)N2[C@H](C1)[C@H](c1ccc(Br)cc1)[C@@H]2CO	-1.2	4	4	-0.5
COc1ccc(NC(=O)Nc2ccc3c(c2)CC(=O)N([C@@H](C)CO)C[C@@H](C)[C@H](CN(C)S(C)(=O)=O)O3)cc1	0.1	0	1	-1.0
Cc1ccc(-c2ccc([C@@H]3[C@@H](CO)N4C(=O)CN(C(=O)Cc5ccccn5)C[C@@H]34)cc2)cc1	-1.3	9	-13	13
C[C@H]1CN([C@@H](C)CO)C(=O)c2cc(C#CCN(C)C)cnc2O[C@H]1CN(C)S(=O)(=O)c1ccccc1	-1.6	3	4	-1.9
O=C(C1CCCC1)N1CC(=O)N2[C@H](CO)[C@@H](c3ccc(C#Cc4cccc(F)c4)cc3)[C@@H]2C1	-3.0	-43	-61	5.6
COc1ccc2c3c(n(C)c2c1)[C@H](CO)N(C(=O)Nc1ccc(F)cc1)CC31CCN(S(=O)(=O)c2cccc(C)c2)CC1	-6.5	-3	4	-1.1
CCN1[C@@H]2c3ccc(-c4ccc(F)cc4)c(=O)n3C[C@@H]2[C@@H](CO)[C@@H]1C(=O)Nc1ccccc1	4.7	-6	-14	0.6
O=C(N[C@@H]1CC[C@H](CCn2cc(C3CCCC3)nn2)O[C@H]1CO)c1cccnc1	-7.7	2	9	-3.6
CCC(=O)N1[C@@H]2c3ccc(-c4cccc(F)c4)c(=O)n3C[C@@H]2[C@@H](CO)[C@@H]1C(=O)N1CCCCC1	-3.2	2	4	-0.2
O=C(c1ccccc1F)N1CC[C@@H]2[C@H]1c1cc(-c3cccc(F)c3)ccc1N[C@@H]2CO	-2.7	1	-1	2.3
O=C(C[C@@H]1CC[C@H]2[C@@H](COC[C@@H](O)CN2CCc2ccccc2)O1)NCc1ccc(F)cc1	-0.4	-5	-16	0.8
C[C@@H]1CN([C@@H](C)CO)C(=O)c2cc(-c3ccc(C#N)cc3)cnc2O[C@@H]1CN(C)C(=O)c1ccccc1	-2.1	-3	6	-1.1
COc1ccccc1C(=O)Nc1ccc2c(c1)C(=O)N(C)C[C@H](OC)[C@@H](C)CN(CC1CC1)[C@@H](C)CO2	1.5	-1	-1	2.8
O=C(Nc1ccccc1)N1CC(=O)N2[C@H](CO)[C@H](c3ccc(C#CC4CCCC4)cc3)[C@@H]2C1	2.1	-15	-37	20
COc1cccc(NC(=O)N2[C@@H]3CNC[C@H]2C3c2ccc(-c3cccc(OC)c3)cc2)c1 (stereo partly specified)	4.4&-4.0	-61&-6	-72&1	-15&-0.9
O=C(C1CCC1)N1CC2(C1)[C@H](c1ccccc1)[C@@H](CO)N2Cc1nccs1	-3.1	0	14	-2.6
CC=Cc1ccc2n(c1=O)C[C@H]1[C@H](CO)[C@@H](C(=O)NCC(F)(F)F)N(CC)[C@@H]21 (mixture of isomers)	-2.9	0	8	-0.4
N#C[C@H]1[C@H](c2ccccc2C2=CCCCC2)[C@H](CO)N1C(=O)Cc1ccncc1	3.2	-5	-3	-0.7
CNC[C@@H]1OCCCC[C@@H](C)Oc2ccc(N(C)C)cc2C(=O)N([C@@H](C)CO)C[C@H]1C	2.2	6	5	-2.5
CCS(=O)(=O)N1CC(=O)N2[C@H](CO)[C@@H](c3ccc(C#CC4CC4)cc3)[C@@H]2C1	4.0	2	-1	-5.1
COCC#Cc1ccc([C@H]2[C@@H](CO)N3C(=O)CN(C(=O)CN4CCOCC4)C[C@H]23)cc1	5.2	2	20	-1.4
O=C(C[C@@H]1C=C[C@@H](NC(=O)C2CCOCC2)[C@@H](CO)O1)NCc1ccccc1Cl	-3.7	2	11	-1.3
CCNC(=O)Nc1ccc2c(c1)C(=O)N(C)[C@H]1CC[C@@H](CC(=O)NCc3ccccc3F)O[C@@H]1CO2	0.0	3	-1	-1.6
O=C(NCCN1CCCC1)[C@@H]1[C@@H](CO)[C@@H]2Cn3c(cccc3=O)[C@H]1N2C(=O)NC1CCCC1	-12	8	6	-0.5
CO[C@@H]1CN(C)C(=O)c2ccc(NS(C)(=O)=O)cc2OC[C@H](C)N(C(=O)C2CCCC2)C[C@H]1C	-2.5	2	0	-2.3
C/C=C/c1ccc([C@H]2[C@@H](CO)N(CCC)[C@H]2CNC(=O)CN2CCOCC2)cc1	-5.5	0	8	0.1
O=C(C[C@H]1CC[C@H]2[C@@H](COC[C@H](O)CN2C(=O)Nc2ccc(Cl)cc2)O1)NCC1CC1	2.2	-51	-56	-0.7
CCNC(=O)Nc1ccc2c(c1)C(=O)N(C)[C@@H]1CC[C@@H](CC(=O)N[C@H](C)c3ccccc3)O[C@@H]1CO2	-3.8	4	4	-0.4
CCCC#Cc1ccc([C@H]2[C@@H](CO)N3C(=O)CN(C(=O)Nc4ccccc4F)C[C@@H]23)cc1	0.1	4	-31	-0.3
C[C@H]1CN([C@@H](C)CO)C(=O)c2cc(NC(=O)Cc3ccccc3)ccc2O[C@@H]1CN(C)C(=O)Nc1ccc(C(F)(F)F)cc1	0.7	-2	-6	-1.6
CC(C)NC(=O)N(C)C[C@@H]1Oc2cc(-c3cccnc3)ccc2S(=O)(=O)N([C@@H](C)CO)C[C@@H]1C	-1.0	2	7	-2.2
COCC(=O)N1CC(=O)N2[C@H](C1)[C@H](c1ccc(C#CC(C)C)cc1)[C@@H]2CO	-2.2	2	5	1.6
COc1ccccc1C(=O)Nc1ccc2c(c1)C(=O)N(C)C[C@@H](OC)[C@@H](C)CN(CC1CC1)[C@H](C)CO2	-0.7	1	-3	-1.2
CCCC#Cc1cnc2c(c1)C(=O)N([C@@H](C)CO)C[C@@H](C)[C@@H](CN(C)Cc1ccccc1)O2	0.0	2	13	1.8
O=C(CN1CCOCC1)N1CC(=O)N2[C@H](CO)[C@@H](c3ccc(-c4cccc(F)c4)cc3)[C@H]2C1	1.1	5	5	0.0
O=C(c1cccnc1)N1CC(=O)N2[C@@H](CO)[C@H](c3ccc(/C=C/c4ccccc4)cc3)[C@@H]2C1	-24	-1	-10	5.3
C[C@H]1CN([C@@H](C)CO)C(=O)c2cccc(NC(=O)Nc3cccc4ccccc34)c2O[C@H]1CN(C)C(=O)Nc1ccc(C(F)(F)F)cc1	1.9	0	11	-0.7
COCC(=O)N1CC2(CCN(C(=O)c3ccccn3)CC2)c2c(n(C)c3cc(OC)ccc23)[C@@H]1CO	-7.6	0	7	-5.4

Next compounds
SMILES	MLL AF4-AF9 inh	Ecoli rRNA inh	Ecoli rRNA inh OD600	Ecoli rRNA inh RFP
CN(C)CC(=O)N1CC2(C1)[C@H](c1ccccc1)[C@H](CO)N2S(=O)(=O)c1ccccc1	-1.9	2	1	0.4
O=C(C1CC1)N1CC(=O)N2[C@H](CO)[C@H](c3ccc(C#Cc4cccc(F)c4)cc3)[C@H]2C1	-3.6	4	-16	-0.7
Cc1noc(C)c1NC(=O)Nc1ccc2c(c1)CC(=O)N([C@H](C)CO)C[C@H](C)[C@@H](CN(C)C(=O)Nc1cccc3ccccc13)O2	0.8	-1	1	1.9
Cc1ccc(S(=O)(=O)N2CC3=C(c4ccccc4)CC4(C)C(=O)C(C)(C)CC4=C3C2)cc1 (stereo unspecified)	0.4	9	11	7.4
C[C@@H]1CN([C@@H](C)CO)C(=O)c2cc(NS(=O)(=O)c3cn(C)cn3)ccc2O[C@H]1CN(C)CC1CC1	-6.3	5	-2	-1.7
O=C(Cc1cccnc1)N1CC2(C1)[C@@H](c1ccccc1)[C@@H](CO)N2C(=O)C1CCC1	-2.0	2	-1	0.8
CCCN(C)C[C@@H]1Oc2cc(C#CCC(C)C)ccc2S(=O)(=O)N([C@@H](C)CO)C[C@H]1C	0.7	-9	-44	39
Cc1noc(C)c1S(=O)(=O)Nc1ccc2c(c1)C(=O)N([C@@H](C)CO)C[C@H](C)[C@@H](CN(C)C)OCCCC[C@H](C)O2	-3.5	3	4	1.1

Nine entries from above, with values ahead of the structure:
MLL AF4-AF9 inh	Ecoli rRNA inh	Ecoli rRNA inh OD600	Ecoli rRNA inh RFP	mol
1.1	5	5	0.0	O=C(CN1CCOCC1)N1CC(=O)N2[C@H](CO)[C@@H](c3ccc(-c4cccc(F)c4)cc3)[C@H]2C1
-24	-1	-10	5.3	O=C(c1cccnc1)N1CC(=O)N2[C@@H](CO)[C@H](c3ccc(/C=C/c4ccccc4)cc3)[C@@H]2C1
1.9	0	11	-0.7	C[C@H]1CN([C@@H](C)CO)C(=O)c2cccc(NC(=O)Nc3cccc4ccccc34)c2O[C@H]1CN(C)C(=O)Nc1ccc(C(F)(F)F)cc1
-7.6	0	7	-5.4	COCC(=O)N1CC2(CCN(C(=O)c3ccccn3)CC2)c2c(n(C)c3cc(OC)ccc23)[C@@H]1CO
-1.9	2	1	0.4	CN(C)CC(=O)N1CC2(C1)[C@H](c1ccccc1)[C@H](CO)N2S(=O)(=O)c1ccccc1
-3.6	4	-16	-0.7	O=C(C1CC1)N1CC(=O)N2[C@H](CO)[C@H](c3ccc(C#Cc4cccc(F)c4)cc3)[C@H]2C1
0.8	-1	1	1.9	Cc1noc(C)c1NC(=O)Nc1ccc2c(c1)CC(=O)N([C@H](C)CO)C[C@H](C)[C@@H](CN(C)C(=O)Nc1cccc3ccccc13)O2
0.4	9	11	7.4	Cc1ccc(S(=O)(=O)N2CC3=C(c4ccccc4)CC4(C)C(=O)C(C)(C)CC4=C3C2)cc1 (stereo unspecified)
-6.3	5	-2	-1.7	C[C@@H]1CN([C@@H](C)CO)C(=O)c2cc(NS(=O)(=O)c3cn(C)cn3)ccc2O[C@H]1CN(C)CC1CC1
